UUG fidelity = yeast start codon fidelity modulation. S. cerevisiae UUG-firefly luciferase reporter, luminescence/redox ratio. activity score, % at 18.7 µM. 0.13% of 350,000 active. AID 602363;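 active = replicate mean at a twofold rise or more, about +100% in these data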;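 note: firefly luciferase made from a UUG start codon reports start codon fidelity; reporter light over untreated wells divided by growth signal over untreated wells; some hits fall short of that in this replicate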
* hit, by the source's call; & = joins results of further samples. A portion of the library; the hit share may differ from the screen's.

SMILES	UUG fidelity
COc1ccc(NC(=O)Nc2ccc3c(c2)C(=O)N([C@H](C)CO)C[C@H](C)[C@@H](CN(C)C)O3)cc1	-3
COCC(=O)Nc1ccc2c(c1)C(=O)N(C)[C@H]1CC[C@H](CC(=O)Nc3ccccc3C)O[C@@H]1CO2	16
Cc1noc(C)c1NC(=O)N(C)C[C@@H]1Oc2c(NC(=O)C3CCCCC3)cccc2C(=O)N([C@@H](C)CO)C[C@H]1C	-11
CCCNC(=O)N1C[C@H](C)[C@H](OC)CN(C)C(=O)c2cc(NC(=O)CC)ccc2OC[C@@H]1C	-11
COCC(=O)N1C[C@H]2[C@@H](c3ccccc31)[C@H](CO)N2Cc1ccccc1F	-17
CO[C@@H]1CN(C)C(=O)c2ccc(NC(C)=O)cc2OC[C@@H](C)N(C(=O)C2CC2)C[C@@H]1C	13
O=C(Nc1cccc(Cl)c1)N1C[C@@H]2[C@H](c3ccccc31)[C@H](CO)N2Cc1ccccc1Cl	2
CO[C@@H]1CN(C)C(=O)c2ccc(NS(=O)(=O)CC(F)(F)F)cc2OC[C@H](C)N(Cc2nccs2)C[C@H]1C	12
O=C(C[C@H]1CC[C@H]2[C@@H](COC[C@@H](O)CN2Cc2cccc(Cl)c2)O1)NCc1cccc(F)c1	-8
COc1ccc(CNC(=O)C[C@H]2C[C@H]3c4cc(NS(C)(=O)=O)ccc4O[C@H]3[C@H](CO)O2)cc1	0
C[C@@H]1CN([C@@H](C)CO)C(=O)CCCn2nncc2CO[C@@H]1CN(C)CC1CCCC1	0
C[C@H](CO)N1C[C@H](C)[C@@H](CN(C)Cc2ccc(C(=O)O)cc2)Oc2ccc(NC(=O)Nc3ccccc3)cc2CC1=O	0
C[C@@H]1CN([C@H](C)CO)C(=O)Cc2cc(NC(=O)Cc3ccccc3)ccc2O[C@@H]1CN(C)S(=O)(=O)c1ccc(Cl)cc1	-9
CO[C@H]1CN(C)C(=O)c2ccc(NC(C)=O)cc2OC[C@@H](C)N(C(=O)C2CC2)C[C@@H]1C	9
O=C(Cc1ccccc1)N1C[C@@H]2[C@H](c3ccccc31)[C@@H](CO)N2C(=O)Nc1ccc(F)cc1	3
C[C@@H]1CN([C@H](C)CO)C(=O)Cc2cc(NC(=O)NC3CCCCC3)ccc2O[C@@H]1CN(C)Cc1ccc2c(c1)OCO2	-7
O=C(c1ccncc1)N1C[C@@H]2[C@H](c3ccccc31)[C@@H](CO)N2Cc1ccccc1F	-3
O=S(=O)(Cc1ccccc1)N1CCCCN2[C@H](CO)[C@H](c3ccc(-c4cccnc4)cc3)[C@H]2C1	-9
Cc1cc(C(=O)Nc2cccc3c2O[C@H](CN(C)C(=O)Nc2ccc4c(c2)OCO4)[C@H](C)CN([C@H](C)CO)C3=O)n(C)n1	27
CN(C[C@H]1N[C@@H](CO)[C@H]1c1ccc(C2=CCCC2)cc1)S(C)(=O)=O	-4
C[C@@H](NC(=O)[C@@H]1N[C@@H]2c3ccc(C4=CCCCC4)c(=O)n3C[C@@H]2[C@H]1CO)c1ccccc1	13
CO[C@H]1CN(C)C(=O)c2ccc(NC(C)=O)cc2OC[C@@H](C)NC[C@H]1C	-1
COCC#Cc1ccc([C@@H]2[C@@H](CO)N3CCCCN(S(=O)(=O)c4cccc(OC)c4)C[C@H]23)cc1	-12
COc1ccc(CN(C)C[C@H]2Oc3ccc(NC(=O)Nc4ccc(F)cc4)cc3C(=O)N([C@@H](C)CO)C[C@H]2C)cc1	7
CN(C)C(=O)c1ccc(-c2ccc([C@@H]3[C@@H](CO)N4CCCCN(C(=O)C5CC5)C[C@@H]34)cc2)cc1	-6
SMILES	UUG fidelity
CC(C)NC(=O)N(C)C[C@@H]1Oc2ccc(NS(=O)(=O)c3ccc(Cl)cc3)cc2C(=O)N([C@H](C)CO)C[C@H]1C	-4
O=C(C[C@H]1CC[C@H]2[C@@H](COC[C@@H](O)CN2Cc2ccccc2F)O1)N[C@@H]1CCN(Cc2ccccc2)C1	-11
CC(=O)NC[C@H]1[C@H](c2ccc(C3=CCCC3)cc2)[C@@H](CO)N1Cc1cccnc1	-8
Cc1cc(C(=O)Nc2cccc3c2O[C@H](CN(C)C(=O)Nc2ccc(F)cc2)[C@@H](C)CN([C@H](C)CO)C3=O)n(C)n1	5
Cc1ccc(-c2ccc([C@@H]3[C@@H](CO)N4CCCCN(C(=O)Nc5cccc(F)c5)C[C@@H]34)cc2)cc1	-19
O=C(C1CC1)N1CC[C@@H]2[C@H](CO)Nc3ccc(C#Cc4ccccc4F)cc3[C@@H]21	4
COc1ccc(NC(=O)N2CCCCN3[C@@H](CO)[C@H](c4ccc(C5=CCCCC5)cc4)[C@@H]3C2)cc1	11
COCC(=O)Nc1ccc2c(c1)OC[C@@H](C)N(Cc1cc(F)ccc1F)C[C@H](C)[C@H](OC)CN(C)C2=O	0
CC(C)NC(=O)N(C)C[C@@H]1OCc2ccccc2-c2ccccc2C(=O)N([C@H](C)CO)C[C@@H]1C	0
COC(=O)C[C@@H]1CC[C@H]2[C@H](COc3ccc(NC(=O)Nc4cccc(F)c4)cc3C(=O)N2C)O1	-12
O=C(Nc1ccccc1)N1CCCCN2[C@@H](CO)[C@H](c3ccc(C#CC4CC4)cc3)[C@@H]2C1	-2
O=C(Nc1cccc(F)c1)N1C[C@H]2[C@@H](c3ccccc31)[C@@H](CO)N2C(=O)c1cccnc1	-9
O=C(NC[C@H]1[C@@H](c2ccccc2)[C@@H](CO)N1CC1CCCC1)c1ccccc1	7
O=C(Nc1ccc(Cl)cc1)N1C[C@@H]2[C@H](c3ccccc31)[C@H](CO)N2CC1CCCC1	-9
COCC#Cc1ccc([C@@H]2[C@H](CO)N3CCCCN(Cc4cncnc4)C[C@@H]23)cc1	-12
C[C@@H](O)C#Cc1ccc([C@H]2[C@H](CO)N3CCCCN(CC4CCOCC4)C[C@@H]23)cc1	38
CO[C@H]1CN(C)C(=O)c2ccc(NS(C)(=O)=O)cc2OC[C@H](C)N(C(=O)C2CCCC2)C[C@@H]1C	6
COc1cccc(S(=O)(=O)N2CCCCN3[C@@H](CO)[C@H](c4ccc(-c5cncnc5)cc4)[C@@H]3C2)c1	-15
O=C(Cc1ccccc1)N1CC[C@@H]2[C@@H](CO)Nc3ccc(C#Cc4cccc(F)c4)cc3[C@@H]21	-17
CCC(=O)Nc1ccc2c(c1)OC[C@H](C)N(C(=O)Cc1cccnc1)C[C@@H](C)[C@H](OC)CN(C)C2=O	8
COc1ccc(C#Cc2ccc3c(c2)[C@@H]2[C@@H](CCN2C(=O)c2ccccc2F)[C@H](CO)N3C)cc1	-17
COc1ccc(CN(C)C[C@@H]2Oc3ccc(NC(=O)Nc4ccc(OC)cc4)cc3CC(=O)N([C@@H](C)CO)C[C@H]2C)cc1	-2
CCC(=O)NC[C@@H]1[C@@H](c2ccc(C3=CCCC3)cc2)[C@H](CO)N1C(=O)C1CC1	-10
C[C@H](CO)N1C[C@H](C)[C@@H](CN(C)S(=O)(=O)c2cccs2)Oc2c(NC(=O)Nc3ccc(C(F)(F)F)cc3)cccc2C1=O	9
CCNC(=O)C[C@@H]1CC[C@H]2[C@@H](COc3ccc(NC(=O)c4ccc(F)c(F)c4)cc3C(=O)N2C)O1	-2

Reprinted from the part before: 5 entries; new compounds follow.
SMILES	UUG fidelity
COc1ccc(C#Cc2ccc3c(c2)[C@@H]2[C@@H](CCN2C(=O)c2ccccc2F)[C@H](CO)N3C)cc1	-17
COc1ccc(CN(C)C[C@@H]2Oc3ccc(NC(=O)Nc4ccc(OC)cc4)cc3CC(=O)N([C@@H](C)CO)C[C@H]2C)cc1	-2
CCC(=O)NC[C@@H]1[C@@H](c2ccc(C3=CCCC3)cc2)[C@H](CO)N1C(=O)C1CC1	-10
C[C@H](CO)N1C[C@H](C)[C@@H](CN(C)S(=O)(=O)c2cccs2)Oc2c(NC(=O)Nc3ccc(C(F)(F)F)cc3)cccc2C1=O	9
CCNC(=O)C[C@@H]1CC[C@H]2[C@@H](COc3ccc(NC(=O)c4ccc(F)c(F)c4)cc3C(=O)N2C)O1	-2
C[C@H](CO)N1C[C@H](C)[C@@H](CN(C)S(=O)(=O)c2ccc(F)cc2)Oc2c(NC(=O)C3CCCCC3)cccc2C1=O	-2&-18
CCC(=O)N(C)C[C@@H]1[C@@H](c2ccc(-c3ccccc3F)cc2)[C@H](CO)N1C(C)=O	-6
COCC(=O)Nc1ccc2c(c1)C(=O)N(C)C[C@@H](OC)[C@H](C)CN(C(=O)Nc1ccccc1F)[C@H](C)CO2	8
CS(=O)(=O)N1CCCCN2[C@H](CO)[C@@H](c3ccc(C#Cc4ccccn4)cc3)[C@@H]2C1	-7
Cc1cccc(S(=O)(=O)N2CCCCN3[C@H](CO)[C@@H](c4ccc(C#C[C@@H](C)O)cc4)[C@H]3C2)c1	6
Cc1ccc(S(=O)(=O)N2CC[C@@H]3[C@H]2c2cc(C#Cc4ccccc4F)ccc2N[C@@H]3CO)cc1	-21
C[C@H]1CN([C@@H](C)CO)C(=O)c2cc(NS(=O)(=O)c3cn(C)cn3)ccc2O[C@H]1CN(C)Cc1ccc(C(=O)O)cc1	-22
CO[C@@H]1CN(C)C(=O)c2ccc(NC(=O)NC(C)C)cc2OC[C@@H](C)N(Cc2ccccc2)C[C@@H]1C	3
CCN(C[C@H]1N[C@H](CO)[C@@H]1c1ccc(C2=CCCC2)cc1)C(=O)c1ccncc1	-13
Cc1ccc(S(=O)(=O)Nc2ccc3c(c2)C(=O)N([C@H](C)CO)C[C@H](C)[C@H](CN(C)C(=O)NC2CCCCC2)O3)cc1	7
O=C(c1ccccc1F)N1C[C@@H]2[C@H](c3ccccc31)[C@@H](CO)N2C(=O)c1cccnc1	-2
O=S(=O)(c1ccccc1)N1C[C@H]2[C@@H](c3ccccc31)[C@@H](CO)N2Cc1ccccc1	-9
N#Cc1cccc(-c2ccc3c(c2)[C@H]2[C@H](CCN2S(=O)(=O)c2cccc(F)c2)[C@H](CO)N3)c1	-2
COc1ccc(CN(C)C[C@@H]2Oc3c(NS(=O)(=O)c4ccc(C)cc4)cccc3C(=O)N([C@@H](C)CO)C[C@H]2C)cc1	35
Cc1ccc(S(=O)(=O)Nc2cccc3c2O[C@H](CN(C)Cc2ccc(C(F)(F)F)cc2)[C@@H](C)CN([C@H](C)CO)C3=O)cc1	12
COc1ccc(CN2[C@@H](CO)[C@@H]3c4ccccc4N(C(=O)Nc4ccccc4)C[C@@H]32)cc1	1
CCCNC(=O)N1[C@H](CO)[C@@H](c2ccccc2)[C@H]1CNC(=O)c1cccc(F)c1	36
O=C(Nc1cccc(F)c1)N1CCCCN2[C@H](CO)[C@H](c3ccc(C#Cc4cccnc4)cc3)[C@H]2C1	31
Cc1cccc(-c2ccc([C@H]3[C@@H](CO)N4CCCCN(Cc5cncnc5)C[C@H]34)cc2)c1	-17
COc1ccc(NC(=O)Nc2ccc3c(c2)CC(=O)N([C@H](C)CO)C[C@@H](C)[C@H](CN(C)C)O3)cc1	10
O=C(Nc1cc(F)ccc1F)N1CCCCN2[C@H](C1)[C@@H](c1ccc(-c3cncnc3)cc1)[C@@H]2CO	12
COCC(=O)Nc1ccc2c(c1)OC[C@@H](C)N(Cc1ccccc1OC)C[C@H](C)[C@H](OC)CN(C)C2=O	2
CO[C@@H]1CN(C)C(=O)c2ccc(NC(=O)C3CCC3)cc2OC[C@H](C)N(Cc2ccccn2)C[C@H]1C	-15
C[C@@H]1CN([C@@H](C)CO)C(=O)c2cccc(NC(=O)Nc3ccc4c(c3)OCO4)c2O[C@H]1CN(C)C	-4
CNC[C@H]1Oc2c(NS(=O)(=O)c3ccccc3)cccc2C(=O)N([C@@H](C)CO)C[C@@H]1C	-4
SMILES	UUG fidelity
C[C@H](CO)N1C[C@H](C)[C@@H](CN(C)C)Oc2ccc(NC(=O)CCCCCC(=O)Nc3ccccc3N)cc2C1=O	-7
Cc1noc(C)c1NC(=O)Nc1ccc2c(c1)C(=O)N([C@@H](C)CO)C[C@@H](C)[C@H](CN(C)C(=O)Nc1cccc3ccccc13)O2	-25
COc1ccc(C(=O)N2C[C@@H]3[C@H](c4ccccc42)[C@@H](CO)N3Cc2ccc3c(c2)OCO3)cc1	-16
O=C(Nc1ccc(F)cc1)N1CCCCN2[C@H](CO)[C@H](c3ccc(C#CC4CC4)cc3)[C@@H]2C1	8
CN(C)C(=O)[C@H]1[C@H](CO)[C@H]2Cn3c(ccc(C4=CCCC4)c3=O)[C@H]2N1Cc1ccccn1	-14
O=C(c1ccncc1)N1CCCCN2[C@H](CO)[C@@H](c3ccc(-c4ccccc4)cc3)[C@@H]2C1	5
Cc1noc(C)c1NC(=O)N(C)C[C@@H]1Oc2ccc(NC(=O)c3ccncc3)cc2C(=O)N([C@H](C)CO)C[C@@H]1C	-26
C[C@@H]1CN([C@H](C)CO)C(=O)Cc2cc(NS(=O)(=O)c3cn(C)cn3)ccc2O[C@H]1CN(C)C	-11
Cc1cccc(-c2ccc([C@H]3[C@@H](CO)N4CCCCN(Cc5ccncc5)C[C@H]34)cc2)c1	0
C[C@H]1CN([C@@H](C)CO)C(=O)c2cc(NC(=O)Nc3ccc(C(F)(F)F)cc3)ccc2O[C@H]1CN(C)Cc1ccc(Cl)c(Cl)c1	-8
CCC(=O)Nc1ccc2c(c1)C(=O)N(C)C[C@@H](OC)[C@@H](C)CN(C(=O)c1ccccn1)[C@H](C)CO2	-12
CN(C)CC#Cc1ccc([C@H]2[C@@H](CO)N3CCCCN(C(=O)Nc4cc(F)ccc4F)C[C@H]23)cc1	-12
CCS(=O)(=O)Nc1ccc2c(c1)C(=O)N(C)C[C@H](OC)[C@@H](C)CN(CC1CCCCC1)[C@@H](C)CO2	-1

Five neighbouring records from above:
SMILES	UUG fidelity
C[C@H](CO)N1C[C@H](C)[C@@H](CN(C)C)Oc2ccc(NC(=O)CCCCCC(=O)Nc3ccccc3N)cc2C1=O	-7
Cc1noc(C)c1NC(=O)Nc1ccc2c(c1)C(=O)N([C@@H](C)CO)C[C@@H](C)[C@H](CN(C)C(=O)Nc1cccc3ccccc13)O2	-25
COc1ccc(C(=O)N2C[C@@H]3[C@H](c4ccccc42)[C@@H](CO)N3Cc2ccc3c(c2)OCO3)cc1	-16
O=C(Nc1ccc(F)cc1)N1CCCCN2[C@H](CO)[C@H](c3ccc(C#CC4CC4)cc3)[C@@H]2C1	8
CN(C)C(=O)[C@H]1[C@H](CO)[C@H]2Cn3c(ccc(C4=CCCC4)c3=O)[C@H]2N1Cc1ccccn1	-14

Bioassay records (PubChem BioAssay)
